Compound activity as filed in PubChem BioAssay.
VACV Venus inh – vaccinia inhibition (Venus reporter) | Vaccinia virus Venus reporter expression, fluorescence | Potency, µM (top dose mostly 36.5 µM), for the others: at the highest dose activity change, negative = inhibition, usual class: inhibitors | actives 0.46% (n = 330,000) | AID 720580; active means well fitted inhibition curve with a large enough effect; inconclusive means small, poorly fitted or top-dose-only effect; inactive means no such curve, though single readings can be large or run the other way; tested in A549 cells; also: nearly all actives have a fitted effect of over 30% in size; inactives centre near -10
VACV mCherry inh – vaccinia inhibition (mCherry reporter). Vaccinia virus mCherry reporter infection, fluorescence; about a quarter of the inactives have no number. Potency, µM (titrated, usually from 36.5 µM), without a hit: at the top dose activity change, negative = inhibition, most hits filed as inhibitors. actives 0.63% (n = 310,000); active = well fitted inhibition curve with a large enough effect; inconclusive = small, poorly fitted or top-dose-only effect; inactive = no such curve, though single readings can be large or run the other way; tested in A549 cells; also: nearly all actives have a fitted effect of over 35% in size; inactives centre near -10
Numbers without * were called inactive; i = inactive; ? = inconclusive; / = no result given; & = joins results of further samples; [ ] = remark or other dose. % is scaled to controls: 0 for no effect and ±100 for the full control effect; potency is read from the fitted curve at half-maximal effect.

SMILES	VACV Venus inh	VACV mCherry inh
CCCCn1c(N)c(N(Cc2ccccc2OC)C(=O)CN2C(=O)NC(C)(c3ccccc3)C2=O)c(=O)[nH]c1=O (stereo not drawn)	-2%	i
Cc1ccc(S(=O)(=O)NCCOc2nc(N3CCOCC3)nc(N3CCOCC3)n2)cc1	-16%	-14%
CSc1nc(-c2ccc(C)cc2)[nH]c1S(=O)(=O)c1ccccc1	-26%	?
COc1ccccc1COn1c(=O)c(-c2ccco2)[n+]([O-])c2ccccc21	-26%	-14%
CN(O)C(=S)c1ccccc1	11µM*	14µM*
COc1ccc(NC(=O)N2CCCC(CNS(=O)(=O)c3cccs3)C2)c(C)c1 (stereo not drawn)	-5%	-6%
CC(=O)C1C(C)CC2C3CCC4CC(=O)CCC4(C)C3CCC21C (stereo not drawn)	-3%	-6%
CCc1c(C)c2cc(Cl)c(O)c(CN3CCCC3)c2oc1=O	-7%	-11%
CC(C)(C)C1CCc2onc(C(=O)Nc3sc4c(c3C#N)CCCC4)c2C1 (stereo not drawn)	-20%	-1%
Cc1cc2oc3ccc(NCCC4CCCN4C)cc3c(=O)c2cc1C (stereo not drawn)	?	?
Cc1cc(C(=O)Cn2nnc3ccccc3c2=O)c(C)n1-c1c(C)n(C)n(-c2ccccc2)c1=O	-10%	i
CCCN1CCC(=O)N(CCC#N)CC1	-14%	i
COc1cc(NC(=O)CC(C)n2ccnc2)cc(OC)c1 (stereo not drawn)	-3%	-12%
COc1ccc(-c2ccc(C(=O)Nc3ccc(OC)nc3)c3occc23)c(C)c1	-23%	-18%
Cc1cccc2nc3c(nc12)-c1ccccc1C3=O	0%	i
CCOc1cccc(NCc2cc3c(C(C)(C)C)nn(-c4ccccc4)c3[nH]c2=O)c1	-15%	i
COc1ccc(C(=O)C2CCN(C(=S)NCCc3ccccc3)CC2)cc1	-13%	i
Cc1ccc(S(=O)(=O)N2CCC(=O)N(C(COCc3ccc(C(F)(F)F)cc3)Cc3ccccc3)CC2)cc1 (stereo not drawn)	-26%	-10%
Cc1ccc(C)c(S(=O)(=O)N2CCCCC2CCNC(=O)C(=O)NCc2ccccc2)c1 (stereo not drawn)	?	?
CC(C)(C)OC(=O)NCCCCCNC(=O)c1nc[nH]c1C(=O)NCc1ccc(CNC(=O)OC(C)(C)C)cc1	?	?
CCCC(=O)Nc1ccc(C(=O)N/N=C/c2cccnc2)cc1	2%	-4%
CNC(=O)c1[nH]cnc1C(=O)N[C@@H](Cc1ccccc1)C(=O)OCc1ccccc1	-6%	i
CCOc1ccc(-c2nnc(SCC(=O)N3CCN(c4ccccc4)CC3)o2)cc1	2%	-2%
CC(C)NC(=O)CSc1ccccc1C(=O)NNC(=O)Cn1ccc(C(F)(F)F)n1	-8%	-14%
CCn1c(SCC(=O)N(C)Cc2ccc(OC)c(F)c2)nc2cc(S(N)(=O)=O)ccc21	-8%	i

Next records:
SMILES	VACV Venus inh	VACV mCherry inh
CC(C)C(=O)N/N=C/c1ccc(OCc2ccccc2)cc1	-6%	-10%
O=C(NC1CCCCC1)N(C1=NCCCCC1)c1ccc(Br)cc1	-11%	-18%
CCOC(=O)c1ccc(CC(=O)c2ccc(O)cc2O)o1	-2%	-14%
CC(CCc1ccco1)N(C)S(=O)(=O)c1csc(C(N)=O)c1 (stereo not drawn)	-16%	-26%
CCCS(=O)(=O)NC(=O)C1(C)CCCN(C(=O)c2ccco2)C1 (stereo not drawn)	1%	21%
COc1ccc(NC(=S)NCCCN2CCCC2)cc1Cl	-6%	-7%
CC(O)C(O)C(O)C(O)/C=N/NC(=O)c1ccccc1 (stereo not drawn)	-2%	i
COc1ccccc1S(=O)(=O)N(C)C[C@@H]1Oc2cc(C#CCC(C)C)ccc2S(=O)(=O)N([C@H](C)CO)C[C@@H]1C	?	?
O=S1(=O)c2c(F)cccc2OC(COCc2ccccc2)CN1C1CCCC1 (stereo not drawn)	-19%	?
CS(=O)(=O)N(Cc1ccc(Cl)cc1)c1ccc(C(=O)NCCSc2ccccn2)cc1	-30%	-16%
COc1ccc(C2CC(C(F)(F)F)n3nc(C(=O)O)cc3N2)cc1 (stereo not drawn)	1%	-11%
C=CCOc1ccc(/C=N/N2C(=O)C(CC(=O)Nc3ccc(F)cc3F)SC2=NC)cc1 (stereo not drawn)	?	?
O=C(NC1CC(=O)N(c2ccccc2)C1)C(=O)c1c[nH]c2ccccc12 (stereo not drawn)	-23%	-1%
Cc1ccc(OCCOC(=O)CN2C(=O)NC3(CCCC3)C2=O)cc1	-7%	-4%
NC(CO)C(O)c1ccc([N+](=O)[O-])cc1 (stereo not drawn)	-12%	-4%
CC(=NNC(N)=S)c1ccc2cc3c(cc2c1)OCO3	2µM*	?
O=C(Cn1cnc2nc3c(cc2c1=O)CCCC3)Nc1ccc(F)cc1Cl	-12%	-9%
COc1cccc(CNC(=O)C(C(=O)NCc2cccc(OC)c2)c2ncc(C(F)(F)F)cc2Cl)c1	-14%	i
NC(=O)CSc1nc2cccnc2n1-c1ccc(F)cc1	-1%	-13%
CCCCc1cc2c(s1)CCCC/C2=N/O	-16%	-8%
CC1=C(C(=O)N(C(C)C)C(C)C)CC(CC(=O)NCCN2CCOCC2)C(=O)N1CCC1=CCCCC1 (stereo not drawn)	-1%	10%
CCN(CC)C(=O)C(C)N(C#N)c1nc(Cl)nc(N(C)C)n1 (stereo not drawn)	-19%	-4%
Cc1cccc(N2CCN(C(=O)N3CCCCC3)CC2)c1C	-25%	-26%
CC(=O)NCCNC(=O)C1Cc2c(-c3ccccc3)ccnc2O1 (stereo not drawn)	10%	0%
CCN(C(=O)N(CC)c1ccccc1)c1ccccc1	-19%	i

Next section; the last three above are carried over.
SMILES	VACV Venus inh	VACV mCherry inh
Cc1cccc(N2CCN(C(=O)N3CCCCC3)CC2)c1C	-25%	-26%
CC(=O)NCCNC(=O)C1Cc2c(-c3ccccc3)ccnc2O1 (stereo not drawn)	10%	0%
CCN(C(=O)N(CC)c1ccccc1)c1ccccc1	-19%	i
CC(C)(C)NC(=O)CSc1nc(-c2ccccc2)cc(=O)[nH]1	-20%	-16%
CCNC(=S)/N=C(/Nc1ccc(OC)cc1)Nc1nc(C)cc(C)n1	-3%	-2%
CCOC(=O)c1c(C)[nH]c(C(=O)OCc2c(C)noc2C)c1C	?	/
FC(F)(F)c1cccc(Cc2noc(CN3CCC(c4ccncc4)CC3)n2)c1	-14%	-8%
CCn1nc(C)cc1C(=O)N1CCC2(CC1)c1ccccc1[C@@H](NC(=O)c1cccnc1)[C@@H]2O	-2%	-8%
O=C(CC(=O)N/N=C/c1ccccc1O)NCc1cccnc1	?	?
Fc1ccc(-c2nc3ccc(Br)cn3c2Cc2ccccc2C(F)(F)F)cc1	-5%	7%
c1cncc(Oc2cccc(Oc3cccnc3)c2)c1	-19%	/
O=C(/C=C/N1CCOCC1)c1cc2ccccc2o1	13%	/
O=C(Nc1cccc(C(F)(F)F)c1)Oc1ccccc1N1CCOCC1	-3%	?
Cc1ccc(C(=O)N/C(=C/c2ccc(-c3cccc([N+](=O)[O-])c3)o2)C(=O)NC(C)(C)C)cc1	-26%	-10%
O=C(/C=C/c1ccc2c(c1)OCO2)Nc1c(C(=O)O)[nH]c2ccccc12	-5%	-9%
CSc1ncc(Cl)c(C(=O)Nc2ccc(S(=O)(=O)N3CCCC(C)C3)cc2)n1 (stereo not drawn)	?	?
CCOC(=O)CNc1nc(-c2ccncc2)nc2ccccc12	-14%	-22%
CCn1cc(C(=O)O)c(=O)c2cc(F)c(N3CCN(C(=S)NC(=O)c4c(OC)cccc4OC)CC3)cc21	-12%	-10%
COc1cccc(-n2c(C)c(C(C)=O)c(C(C)=O)c2C)c1	-17%	-14%
CCN1/C(=C/C(C)=C/c2sc3ccccc3[n+]2CC)Sc2ccccc21	i	/
CCCCn1nnnc1C(c1ccc(OC)cc1)N1CCN(C/C=C/c2ccccc2)CC1 (stereo not drawn)	-11%	i
CCCCOc1ccc(C(=O)NCCN2CCC(n3c(=O)[nH]c4ccccc43)CC2)cc1	-10%	-2%
CC(C)(C)c1ccc(/C=C(\c2nc3ccccc3[nH]2)S(=O)(=O)c2ccccc2)cc1	?	14µM*
Cc1ccccc1S(=O)Cc1ccc(C(=O)NC2CCN(Cc3ccccc3)CC2)o1 (stereo not drawn)	-7%[7.34 µM]	i[7.34 µM]
CSc1ccc(OCC(=O)Nc2ccc(N3CCOCC3)c(Cl)c2)cc1	-23%	-9%
CC1C(=O)Nc2ccccc2N1C(=O)C1CC1 (stereo not drawn)	-15%	/
Cc1c(C(=O)c2ccccc2C(=O)O)sc2ccccc12	-5%	i
COC(=O)c1cc(Cl)c(NC(=O)/C=C/c2ccc(OC)cc2)cc1OC	-13%	i

Record cards, from the list above. Values in the order: VACV Venus inh, VACV mCherry inh
Listed for `CCn1cc(C(=O)O)c(=O)c2cc(F)c(N3CCN(C(=S)NC(=O)c4c(OC)cccc4OC)CC3)cc21` = -12%, -10%
Listed for `CCCCOc1ccc(C(=O)NCCN2CCC(n3c(=O)[nH]c4ccccc43)CC2)cc1` = -10%, -2%
Listed for `Cc1ccc(C(=O)N/C(=C/c2ccc(-c3cccc([N+](=O)[O-])c3)o2)C(=O)NC(C)(C)C)cc1` = -26%, -10%
Listed for `CCOC(=O)c1c(C)[nH]c(C(=O)OCc2c(C)noc2C)c1C` = ?, /
Listed for `CSc1ncc(Cl)c(C(=O)Nc2ccc(S(=O)(=O)N3CCCC(C)C3)cc2)n1` (stereo not drawn) = ?, ?

Reformatted field by field: part of the list above
CSc1ccc(OCC(=O)Nc2ccc(N3CCOCC3)c(Cl)c2)cc1
  VACV Venus inh: -23%; VACV mCherry inh: -9%
CC1C(=O)Nc2ccccc2N1C(=O)C1CC1 (stereo not drawn)
  VACV Venus inh: -15%; VACV mCherry inh: /

Carrying on.
SMILES	VACV Venus inh	VACV mCherry inh
COc1ccc(OC)c(CCNC(=O)c2sc3nc4n(c(=O)c3c2C)CCCC4)c1	-14%	-4%
Cc1snc(S(=O)(=O)/C(C#N)=N/Nc2cccc(C(F)(F)F)c2)c1C#N	?	11µM*
CC1=C(C(=O)OCc2ccccc2)C(c2cccc3ccccc23)NC(=O)N1CCCC(=O)O (stereo not drawn)	-8%	-6%
CCOc1ccccc1NC(=O)COC(=O)c1cc(C(=O)OC)cc([N+](=O)[O-])c1	-7%	-14%
Cc1cccc(-n2ncc3c(N4CCN(CCO)CC4)ncnc32)c1	-1%	-14%
Cc1noc(C)c1NC(=O)Nc1ccc2c(c1)C(=O)N([C@H](C)CO)C[C@H](C)[C@@H](CN(C)S(=O)(=O)c1cccs1)O2	-23%	-5%
Cc1ccc(NC(=O)c2ncn(CCCN(CCCn3cnc(C(=O)Nc4ccc(C)c(C)c4)n3)Cc3ccc4[nH]ccc4c3)n2)cc1C	?	i
Cc1nn(Cc2ccc(F)cc2)c(Cl)c1/C=N/NC(=O)c1cccnc1	-7%	-2%
COc1ccc(-c2cc(C(=O)N3CCN(S(=O)(=O)c4ccc(C)cc4)CC3)[nH]n2)cc1	-13%	-20%
CC(C)C(=O)Nc1cccc(NC(=O)c2cccc(Br)c2)c1	-18%	-12%
CCOc1ccc(NC(=O)CSc2nccn2C2CCCC2)cc1	-13%	-13%
Nc1nnc(Cc2ccc(Cl)cc2)s1	-3%	/
Cc1ccc(OCCOC(=O)c2sc(=S)n(C)c2C)cc1	0%	i
Cc1cc(C(F)F)n2ncc(C(=O)O)c2n1	-3%	-2%
CSc1ccc(S(=O)(=O)NCC(=O)OCC(=O)N(Cc2ccccc2)C(C)C)cc1[N+](=O)[O-]	-3%	-14%
O=C(Oc1ccc2c3c(c(=O)oc2c1)CCC3)c1ccco1	4%	-14%
CC(=O)Oc1ccc(-c2csc(Nc3ccccn3)n2)cc1	-30%	?
O=C(NCc1ccco1)c1ccc(C(=O)NCc2ccco2)s1	?	-25%
COc1ccc(/C(N)=N/OC(=O)Cc2ccccc2[N+](=O)[O-])cc1	-10%	-1%
O=C(NN=Cc1ccccc1OC(F)F)c1cccc(S(=O)(=O)N2CCCC2)c1	-2%	i
CCn1c(SCC(=O)NC(=O)NC(C)(C)C)nc2ccccc21	2%	i
O=C(O)CSc1nnc(COc2ccc([N+](=O)[O-])cc2)n1-c1ccccc1	-14%	-2%
COc1cc(NC(=O)c2cccc(C)c2)ccc1NC(=O)c1cc2ccccc2o1	8.9µM*	?
COCCCNC(=O)[C@H](Cc1c[nH]c2ccccc12)NC(=O)OCc1ccccc1	-22%	-5%
N=c1c(S(=O)(=O)c2ccccc2)cc2c(=O)n3ccccc3nc2n1CC1CCCO1 (stereo not drawn)	-3%	-15%

More results follow:
SMILES	VACV Venus inh	VACV mCherry inh
CCN(c1ccccc1)S(=O)(=O)c1ccc(NC(=O)c2cc(=O)c3c(C)cc(C)cc3o2)cc1	-13%	16%
Cc1ccc(C(c2sc3nc(C)nn3c2O)N2CC(C)OC(C)C2)cc1 (stereo not drawn)	-13%	-23%
Cc1cccc(C(=O)Nc2cc3c(cc2N2CCCCC2)n(C)c(=O)c(=O)n3C)c1	-2%	-6%
CSCc1ccc(C(=O)Nc2cccc(C)c2C)cc1	-13%	-1%
CC(=O)O[C@H]1C(=O)[C@@]2(C)C([C@H](OC(=O)c3ccccc3)[C@]3(O)C[C@H](O)C(C)=C1C3(C)C)[C@]1(OC(C)=O)CO[C@@H]1C[C@H]2O (stereo partly drawn)	-6%	-10%
COc1ccc(-c2cc(=O)c3c(OC)c(OC)c(OC)c(OC)c3o2)cc1OC	-14%&-21%	-5%
O=C1/C(=C/c2ccccn2)SC(=S)N1Nc1ncc(C(F)(F)F)cc1Cl	-9%	-2%
